Autofluor counter: counter-screen for toxin protease inhibitors: compound fluorescence; compound autofluorescence counterscreen, microsphere flow cytometry; active compounds read high; fluorescence intensity (no concentration beside the values); 3.1% of 360,000 active;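 active = at least 3 SD above the mean of all compounds, about 16000 in these data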;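 note: 100 nL of 1 mM stock went into each well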
BJeLR lethal: MLPCN primary cell-based screen for lethality selective to Ras in HRASV12 cells | BJeLR (HRASV12) viability, CellTiter-Glo ATP luminescence, 48 h; reference of the scale not given here | inhibition, % (test concentration not listed) | 0.17% of 300,000 active;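 active = replicate mean above 50%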;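 note: 50 nL library stock added to about 25 µL; numbers are from one replicate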
RN4220 kill: growth inhibition of S. aureus RN4220, primary screen, OD600. 16 h. inhibition, % (concentration not given with the values). 0.33% of 330,000 active. AID 1259311, 2017;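 active = z-score of -3 or lower and OD600 up to 0.18 on both plates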;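 note: plate controls were untreated cells for no effect and reference antibiotic for full effect; stock transfer was 100 nL into about 80 µL; one replicate is shown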
Mtb hypoxia rep: PubChem AID 1159583. 0.1% of 300,000 active. M. tuberculosis hypoxia-regulated fluorescent reporter, fluorescence. fluorescence inhibition, % (no concentration beside the values);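 active = 35 to 45% if threefold the growth effect, above 45% if 1.5-fold the growth effect; inactive = the rest, general growth blockers included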;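 note: wells of about 50 µL received 100 nL stock; 0% = vehicle wells and 100% = reference inhibitor wells; whole bacteria with a GFP reporter of the hypoxia response; strong numbers were not always called active; many hits fall short of the cut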
ugtP null kill: growth inhibition of ugtP-null S. aureus, primary screen, RN4220 ugtP deletion, OD600 | 16 h; some inactives read as strong as hits | 0.54% of 330,000 active | AID 1259309, 2017 | growth inhibition, % (no concentration beside the values);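 active = z-score under -3 and OD600 up to 0.15 on both plates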;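 note: plate controls were untreated wells for no effect and antibiotic for full effect; wells of about 80 µL received 100 nL stock; the first replicate is given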
PrP UTR inh: inhibition of PrP 5' UTR reporter expression | AID 488862, 2010 | 0.35% of 340,000 active | inhibition, % (concentration not given with the values) | cell-based PrP 5' UTR mRNA reporter, plate reader;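 active = every replicate at 50% or more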;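 note: 0 = median of the neutral control wells; tested in H4 reporter cells; numbers are from one replicate; inactives centre near -14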
Mtb hypoxia rep growth: recorded beside Mtb hypoxia rep, whose call it bears; growth inhibition, %; measured here: M. tuberculosis growth (absorbance);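 0% = vehicle and 100% = reference antibiotic; read after six days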
Numbers without * were called inactive; . = no result given.

1) COc1ccc(C)cc1S(=O)(=O)N1CCCC(C(=O)NCC2CCCO2)C1 (stereo not drawn)
2) Cc1nc(S/C(=C/c2ccc(-c3ccc(C(=O)O)cc3)o2)C(=O)O)n[nH]1
3) Cc1cc(Cl)ccc1OCCCC(=O)N1CCN(C)CC1
4) COC(=O)CCSCC(=O)Nc1ccc(S(=O)(=O)N2CCOCC2)cc1OC
5) Fc1ccc(C2N3CCCN23)cc1 (stereo not drawn)
6) COc1cc2nc(C3CCC3)n(NC(=O)C3CCCC(OC)C3)c(=O)c2cc1OC (stereo not drawn)
7) Cc1cccc(C(=O)O/N=C2\CCCc3ccccc32)c1
8) O=C(NCc1ccco1)/C(=C\c1cccs1)NC(=O)c1ccsc1

compound no.,1,2,3,4,5,6,7,8
Autofluor counter,6337,5836,3120,4493,4662,10479,8794,2022
BJeLR lethal,3,-10,2,-9,-2,-12,2,-2
RN4220 kill,3.3,.,1.1,2.7,-0.3,2.9,.,-0.2
Mtb hypoxia rep,8,.,.,9,0,1,.,-2
Mtb hypoxia rep growth,-1,.,.,8,-9,5,.,-1
ugtP null kill,16,.,3,4,-2,3,.,1
PrP UTR inh,-21,-24,-8,3,-22,-15,-29,3

9) O=C(NCC1CCCO1)c1cn(Cc2ccccc2)nc1-c1ccccc1 (stereo not drawn)
10) N#Cc1c(-c2ccccc2)cc(-c2ccccc2)[nH]c1=O
11) O=C1CCCC1=c1sc(=Cc2cccnc2)c(=O)n1-c1ccccc1
12) Cc1ccc(S(=O)(=O)NCC(=O)N2CCN(c3ccccn3)CC2)cc1
13) CCc1ccc(S(=O)(=O)Nc2nccs2)cc1
14) CSc1cccc(NC(=O)COc2ccccc2C)c1
15) CCOC(=O)CNC1CC(=O)N(c2cccc(Cl)c2)C1=O (stereo not drawn)
16) CC1=C(C)CC(C(=O)NCc2c(F)cccc2Cl)C(C(=O)O)C1 (stereo not drawn)

compound no.,9,10,11,12,13,14,15,16
Autofluor counter,3506,3656,.,10284,4034,4638,11080,3917
BJeLR lethal,.,5,.,-1,-15,-3,-3,2
RN4220 kill,5.0,6.4,5.3,2.3,-1.2,8.4,-0.2,2.7
Mtb hypoxia rep,1,10,10,1,-6,6,2,14
Mtb hypoxia rep growth,0,0,6,5,1,-1,-4,6
ugtP null kill,3,-3,-8,5,4,2,-1,15
PrP UTR inh,-10,-8,.,-14,-20,-36,-42,-36

17) Cc1cccc(NC(=O)Nc2ccc(Oc3c(F)c(F)c(F)c(F)c3F)cc2)c1
18) CCC(C)c1ccccc1NS(=O)(=O)c1cnn(CC)c1 (stereo not drawn)
19) Cc1csc(NC(=O)C(NS(=O)(=O)c2ccc(Br)s2)c2ccccc2)n1 (stereo not drawn)
20) COc1cc(C2NC(=S)NC(c3ccccc3)=C2C(C)=O)cc(Br)c1OCC(N)=O (stereo not drawn)
21) COc1ccc(/C=C/C(=O)N2CCC(c3ccccc3)C2)cc1 (stereo not drawn)
22) CCN(CC1CCCO1)C(=O)c1cc(COc2ccc(OC)cc2Cl)on1 (stereo not drawn)
23) Cc1ccc(C(=O)Nc2ccc3c(c2)OCO3)cc1NC(=O)c1ccco1
24) CC(CNC(=O)Cn1ccc(N)nc1=O)c1ccccc1 (stereo not drawn)

compound no.,17,18,19,20,21,22,23,24
Autofluor counter,10279,.,4214,2039,2023,6001,4195,4133
BJeLR lethal,15,7,3,5,9,2,-2,.
RN4220 kill,5.6,6.0,6.1,4.1,1.3,0.8,6.2,2.9
Mtb hypoxia rep,5,5,.,5,-8,5,5,9
Mtb hypoxia rep growth,7,-14,.,0,6,9,17,9
ugtP null kill,-20,-2,-20,9,-11,2,17,-13
PrP UTR inh,-11,-17,-13,-1,2,-11,-30,-12

25) COc1ccc(NC(=O)Cn2c(NCC(C)O)nc3ccccc32)cc1Cl (stereo not drawn)
26) C=CCC(C#Cc1ccc(C)cc1)N(CC)CC (stereo not drawn)
27) O=C(Cn1nnc(-c2cccs2)n1)NCc1ccco1
28) CCCCNC(C(=O)Nc1cccc(S(=O)(=O)N2CCOCC2)c1)c1ccccc1 (stereo not drawn)
29) Cc1ccc2nc(SCn3nnc4ccccc4c3=O)[nH]c2c1
30) CS(=O)(=O)N1Cc2ccccc2CC1C(=O)OCC(=O)NCc1ccccc1 (stereo not drawn)
31) O=C(CCS(=O)(=O)c1ccc(Cl)cc1)NCCC1=CCCCC1
32) COc1ccc(Cl)cc1NC(=O)CC(C)=NNC(=O)c1ccccc1[N+](=O)[O-]

compound no.,25,26,27,28,29,30,31,32
Autofluor counter,4097,2887,4296,3686,2706,3842,7122,.
BJeLR lethal,-5,-7,3,-3,-6,.,1,.
RN4220 kill,-0.6,2.0,1.0,6.8,8.4,2.7,0.0,1.9
Mtb hypoxia rep,6,.,6,-3,9,2,7,11
Mtb hypoxia rep growth,2,.,4,-4,10,-2,0,12
ugtP null kill,2,4,12,18,2,-3,-2,4
PrP UTR inh,-27,-19,-33,-7,-97,0,-22,.

33) Cc1cc(C)cc(C(=O)NC(CC(N)=O)c2ccc(NCCN3CCCC3)c([N+](=O)[O-])c2)c1 (stereo not drawn)
34) O=C(Cn1nc(Cl)nc1Cl)Nc1ccccc1
35) CN1C(=O)/C(=C\c2cccc(OCc3ccccc3)c2)SC1=S
36) O=S(=O)(NCC(c1cccnc1)N1CCN(c2ccc(F)cc2)CC1)c1ccc(F)cc1 (stereo not drawn)
37) CC(=O)Nc1ccccc1OCC(=O)NCCc1ccc(Cl)cc1Cl
38) O=C(CCc1nnc(-c2ccccc2)o1)c1ccc(Cl)cc1
39) c1ccc(Cn2c(Sc3nnnn3-c3ccccc3)nnc2-c2ccccc2)cc1
40) O=C1/C(=C\c2ccsc2)N2CCC1CC2

compound no.,33,34,35,36,37,38,39,40
Autofluor counter,3679,.,4001,6989,2770,6195,4243,5546
BJeLR lethal,-2,-4,8,1,-1,-8,1,4
RN4220 kill,-4.2,-2.5,3.8,2.3,5.5,1.0,5.6,4.9
Mtb hypoxia rep,0,.,-2,-14,8,6,6,14
Mtb hypoxia rep growth,0,.,2,1,4,-9,-6,-3
ugtP null kill,-12,1,-2,-2,-5,0,11,5
PrP UTR inh,-13,-10,1,-10,-20,-8,-12,-18

41) Cc1ccccc1NC(=O)c1ccc(-n2cncn2)nc1
42) O=C(NCc1nc2ccccc2[nH]1)C1=C[C@@H](c2ccccc2)C[C@@H](OCCCCO)O1
43) O=C(NNC(=O)c1ccc[nH]1)Nc1cccc(C(F)(F)F)c1
44) COc1ccc(CNC(=S)Nc2ccc3nc(N4CCN(C)CC4)cc(C)c3c2)cc1
45) COc1ccc(/C(N)=N/OC(=O)CCCc2ccccc2)cc1
46) CN(C(=O)COc1ccccc1C(=O)NCCc1ccccc1)c1ccccc1
47) CC(C)(C)OC(=O)N1CCN(C(=O)c2nc[nH]c2C(=O)N2CCN(C(=O)OC(C)(C)C)CC2)CC1
48) Cc1ccc(NC(=O)c2ccc(=O)[nH]n2)cc1S(=O)(=O)Nc1ccc(SC(F)F)cc1

compound no.,41,42,43,44,45,46,47,48
Autofluor counter,8846,3110,4715,5276,1945,2066,3966,3805
BJeLR lethal,8,-9,3,4,-19,-2,.,.
RN4220 kill,0.8,.,-0.8,2.7,0.8,3.5,3.6,3.3
Mtb hypoxia rep,-8,.,13,-8,2,13,5,4
Mtb hypoxia rep growth,0,.,4,1,8,8,5,1
ugtP null kill,-2,.,10,3,14,2,-9,-3
PrP UTR inh,-25,-15,-20,-16,-3,-23,-11,2

49) COc1ccc(CNS(=O)(=O)c2cn(C)c(=O)n(C)c2=O)cc1
50) O=C(CCOc1cccc(Br)c1)Nc1ccc(F)c(S(=O)(=O)N2CCOCC2)c1
51) Cn1c(COc2ccc3ccccc3c2)nnc1SCC(=O)O
52) CCN(CCC(=O)Nc1cc(OC)cc(OC)c1)Cc1ccccc1
53) COc1ccc(CN2CCNC(=O)C2CC(=O)N(C)CC2CCOCC2)cc1C (stereo not drawn)
54) O=C(O)c1ccccc1C(=O)Nc1cc(-c2ccccc2)[nH]n1
55) O=C(NCNC(=O)NC1C(=O)NC(=O)N1CO)NC1C(=O)NC(=O)N1CO (stereo not drawn)
56) CCN(CC)CCOC(=O)C1(C2CCCCC2)CCCCC1

compound no.,49,50,51,52,53,54,55,56
Autofluor counter,4216,7224,4067,5193,5897,3534,4121,6031
BJeLR lethal,-6,.,2,-1,9,4,.,8
RN4220 kill,4.9,0.6,3.6,3.3,3.3,-3.6,2.7,10
Mtb hypoxia rep,6,-3,8,3,14,4,0,4
Mtb hypoxia rep growth,-3,0,6,-2,4,8,-1,12
ugtP null kill,10,-15,1,-2,-3,13,-2,-4
PrP UTR inh,14,-18,-14,-11,-3,.,2,-27

Ordered by number of heavy atoms (lowest first): 5 of the compounds above
56) CCN(CC)CCOC(=O)C1(C2CCCCC2)CCCCC1
54) O=C(O)c1ccccc1C(=O)Nc1cc(-c2ccccc2)[nH]n1
52) CCN(CCC(=O)Nc1cc(OC)cc(OC)c1)Cc1ccccc1
55) O=C(NCNC(=O)NC1C(=O)NC(=O)N1CO)NC1C(=O)NC(=O)N1CO (stereo not drawn)
53) COc1ccc(CN2CCNC(=O)C2CC(=O)N(C)CC2CCOCC2)cc1C (stereo not drawn)

compound no.,56,54,52,55,53
Autofluor counter,6031,3534,5193,4121,5897
BJeLR lethal,8,4,-1,.,9
RN4220 kill,10,-3.6,3.3,2.7,3.3
Mtb hypoxia rep,4,4,3,0,14
Mtb hypoxia rep growth,12,8,-2,-1,4
ugtP null kill,-4,13,-2,-2,-3
PrP UTR inh,-27,.,-11,2,-3

(further entries)
57) CN(C)C(=O)COc1ccc2c3c(c(=O)oc2c1)CCCC3
58) CCn1cc([N+](=O)[O-])c(C(=O)Nc2ccc(Cn3nc(C)cc3C)cc2)n1
59) OC(COc1cccc2ccccc12)CN1CCOCC1 (stereo not drawn)
60) Cc1ccsc1CNCCc1ccc(F)cc1
61) Cc1c(CC(=O)O)c(=O)oc2cc3oc4c(c3cc12)CCCC4
62) Cn1c(SCC(=O)c2ccc(O)cc2O)nnc1-c1ccccc1
63) O=C(NNc1ncnc2sccc12)c1ccc(Cl)cc1
64) CCOc1ccc(S(=O)(=O)N2CCCCC2)cc1NC(=O)CN1C(=O)NC(CC)(c2ccccc2)C1=O (stereo not drawn)

compound no.,57,58,59,60,61,62,63,64
Autofluor counter,4343,10112,2908,3073,4231,3261,4508,5579
BJeLR lethal,-3,6,.,-1,-1,-4,11,0
RN4220 kill,3.8,5.5,3.8,2.7,5.0,-0.8,1.3,-1.4
Mtb hypoxia rep,2,8,5,5,9,-7,-4,1
Mtb hypoxia rep growth,0,6,0,0,-2,-4,-6,-13
ugtP null kill,5,-5,1,10,11,-2,6,1
PrP UTR inh,-37,-1,-8,-8,-14,-15,-11,9

65) CN(C)Cc1cc(C(C)(C)C)cc(C(C)(C)C)c1O
66) O=C1/C(=C\c2cccnc2)SC(=S)N1C1CCS(=O)(=O)C1 (stereo not drawn)
67) CC(C)(C)OC(=O)NNC(=S)NC1CCCCC1
68) C=CCn1c(SCc2cccc(F)c2)nc2cc(C(=O)N3CCC(C(N)=O)CC3)ccc2c1=O
69) N#Cc1nc(Cc2cccc3ccccc23)oc1NCCN1CCOCC1
70) Cc1occc1-c1n[nH]c(=S)n1CC(C)C
71) COc1ccc(CC(=O)O/N=C(\N)c2ccc(Br)cc2)cc1OC
72) C=CCn1c(SCC(=O)/C(C#N)=C(\C)N)nc2sc(C)c(C)c2c1=O
73) Cc1ccc(-c2nc3sc4c(c3c(=O)n2N)CCCC4)cc1
74) NC(=O)C1=C[C@H](c2ccc(C(F)(F)F)cc2)C[C@H](OCc2ccc(CO)cc2)O1

compound no.,65,66,67,68,69,70,71,72,73,74
Autofluor counter,4508,11218,3140,2068,11202,23617*,4341,2355,14917,4024
BJeLR lethal,-1,.,1,9,-23,1,-9,-1,-9,-4
RN4220 kill,-0.1,7.6,4.8,-0.1,0.1,-5.9,.,-4.7,8.9,.
Mtb hypoxia rep,11,15,15,3,2,-14,.,.,10,.
Mtb hypoxia rep growth,-3,19,1,5,3,7,.,.,-5,.
ugtP null kill,-1,1,-1,-6,-4,-13,.,-11,0,.
PrP UTR inh,-23,-22,-14,-12,0,-30,-10,0,-57,-5
